# Mtb growth = Mycobacterium tuberculosis H37Rv growth inhibition, cell based, confirmatory dose response (AID 1949); most inactive calls were filed without a number and no value below 0 was filed; one-dose inhibition, % at 10 µg/mL; IC50 in µg/mL for titrated hits; hit rate 1.6% among 100,000;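 active = confirmed in a dose series; inconclusive = about 50% or more but not retested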;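 note: bacteria grown 7 days with compound before Alamar blue readout; 0% = untreated bacteria and 100% = reference antibiotic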
# * marks the source's active call; other numbers are inactive results; i = inactive; u = inconclusive. The list is partial. The share of hits here may be higher or lower than overall.
SMILES,Mtb growth
OCCCNc1nc2ccccc2n1Cc1ccccc1,2.4%
CCOc1ccc(S(=O)(=O)Nc2ccc(CC#N)cc2)cc1,i
Clc1ccc(-c2noc(-c3ccccc3Cl)n2)cc1,i
CCOc1ccc(NS(=O)(=O)c2ccc(NC(=O)COc3ccc(Cl)c(C)c3)cc2)cc1,i
COc1cccc(N2C(=O)c3cccc4c(N5CCCCC5)c([N+](=O)[O-])cc(c34)C2=O)c1,i
Cc1ccc2ccc(C(Nc3ccccn3)c3c(F)cccc3Cl)c(O)c2n1 (stereo unspecified),i
Cc1ccccc1CN1C(=O)C(O)(CC(=O)c2ccc(Br)s2)c2ccccc21 (stereo unspecified),i
CC1CCN(c2ccc(N)cc2)CC1,5.71µg/mL*
O=C(CC1(O)C(=O)N(Cc2cccc(F)c2)c2ccccc21)c1cccs1 (stereo unspecified),2.3%
C=C(C)Cc1c(C)nc(-c2ccccc2)[nH]c1=O,i
O=C1CC(CSc2nnnn2-c2ccccc2)=NN1c1nc2ccccc2s1,i
CCN(C(=O)C12CCC(C)(c3nc4ccccc4nc31)C2(C)C)c1ccccc1 (stereo unspecified),10.3%
O=C(c1ccc(S(=O)(=O)N2CCCCCC2)cc1)N1CCN(c2ccccn2)CC1,i
O=C(NN1CCOCC1)C12CC3CC(CC(C3)C1)C2,i
CSc1cccc(NC(=S)Nc2c(C)n(C)n(-c3ccccc3)c2=O)c1,i
Cc1ccc(Cl)cc1N1CCN(C(=O)CN(c2cc(C(F)(F)F)ccc2Cl)S(C)(=O)=O)CC1,7.8%
CC(C)NC(=O)Cn1cc(C=O)c2ccccc21,i
COC(=O)c1ccccc1NC(=O)COc1ccc(Cl)c2cccnc12,2.0%
CC(=O)c1cccc(NC(=O)COc2ccccc2C(=O)NCCc2ccccc2)c1,9.6%
CC(=O)NC(=S)Nc1ccc(NC(=O)c2sc3ccccc3c2Cl)cc1,i
COc1ccc(C2C(C#N)=C(N)Oc3n[nH]c(C)c32)cc1COc1cc(C)c(Cl)c(C)c1 (stereo unspecified),18.9%
O=C(O)CNC(=O)CN1C(=O)c2ccccc2C1=O,i
O=C(COc1cccc(NC(=O)c2ccc([N+](=O)[O-])cc2)c1)c1ccc(Br)cc1,i
CCN(CC)C(=O)c1sc(NC(=S)Nc2ncn(Cc3ccc(Cl)c(Cl)c3)n2)c(C(=O)OC)c1C,i
Cn1nc(C(=O)N2CCOCC2)c2ccccc2c1=O,i

# (list continues)
SMILES,Mtb growth
CC(NC(=S)N1CCN(C(=O)c2ccco2)CC1)C12CC3CC(CC(C3)C1)C2 (stereo unspecified),8.3%
CC12CCC(C(=O)NCC(F)(F)F)(C(=O)C1=O)C2(C)C (stereo unspecified),i
O=C(Cc1c(F)cccc1Cl)NCc1cccnc1,i
Cc1ccc2nc(/C(C#N)=C\c3ccc(N4CCCCC4)o3)[nH]c2c1,19.0%
COc1ccc(C(C)(C)C)cc1NC(=O)c1ccoc1C,7.2%
COc1ccc(C(C)NC(=O)Cc2ccc(-c3ccccc3)cc2)cc1 (stereo unspecified),i
O=S(=O)(c1ccc(OC(F)(F)F)cc1)N1CCN(c2ncccn2)CC1,i
Nc1cc(C(=O)O)ccc1NCC1CCCO1 (stereo unspecified),i
Cc1ccc(OCCn2cnc3ccccc3c2=O)c(Br)c1,i
CCn1c(SCC(=O)c2ccc(Br)cc2)nnc1-c1cccc(C)c1,i
Cc1cccc(NC(=O)CC2CCCCC2)c1C,7.0%
CC1=C(C(=O)Nc2ccc(C)cc2)C(c2ccccc2C)NC(=S)N1 (stereo unspecified),i
CCN(CC)S(=O)(=O)c1ccc(OC)c(NC(=O)COc2ccc(Cl)cc2Cl)c1,i
C=CCn1c(SCC(=O)Nc2sc3c(c2C#N)CCC3)nc2scc(-c3ccccc3)c2c1=O,i
O=C(COc1ccc([N+](=O)[O-])cc1)Nc1ccc(Br)c(Cl)c1,25.3%
O=C(NCCc1ccncc1)Nc1ccccc1Cl,i
CCn1c(COc2ccccc2Cl)nnc1SCC(=O)N1CCN(c2ccccc2)CC1,i
Cc1ccc(OCC(=O)Nc2ccc(CN3CCCCC3)cc2)c(C)c1,i
CC(C)(C)c1ccc(C(=O)N2CCC(C(=O)N3CCN(Cc4ccccc4)CC3)CC2)cc1,1.5%
O=C(O)c1ccc(NC(=S)NC(=O)c2ccc(Cl)cc2Cl)cc1Cl,i
Cn1c(SCc2ccc(Br)cc2)nnc1-c1ccccc1O,i
Cc1ccc(OCC(=O)Nc2nc3c(s2)CCCC3)cc1,16.7%
Cc1onc(-c2ccccc2)c1C(=O)Nc1ccc(Cl)cc1F,i
S=C(NCc1ccc(Cl)cc1)NC1CCN(Cc2ccccc2)CC1,u
CCc1ccc(NC(=O)CN(c2ccccc2)S(=O)(=O)c2ccccc2[N+](=O)[O-])cc1,i

# 14 structures out of the list, arranged by length of the SMILES, highest first.
SMILES,Mtb growth
CCc1ccc(NC(=O)CN(c2ccccc2)S(=O)(=O)c2ccccc2[N+](=O)[O-])cc1,i
C=CCn1c(SCC(=O)Nc2sc3c(c2C#N)CCC3)nc2scc(-c3ccccc3)c2c1=O,i
CC(NC(=S)N1CCN(C(=O)c2ccco2)CC1)C12CC3CC(CC(C3)C1)C2 (stereo unspecified),8.3%
CCn1c(COc2ccccc2Cl)nnc1SCC(=O)N1CCN(c2ccccc2)CC1,i
O=C(COc1ccc([N+](=O)[O-])cc1)Nc1ccc(Br)c(Cl)c1,25.3%
O=C(O)c1ccc(NC(=S)NC(=O)c2ccc(Cl)cc2Cl)cc1Cl,i
CCn1c(SCC(=O)c2ccc(Br)cc2)nnc1-c1cccc(C)c1,i
CC12CCC(C(=O)NCC(F)(F)F)(C(=O)C1=O)C2(C)C (stereo unspecified),i
S=C(NCc1ccc(Cl)cc1)NC1CCN(Cc2ccccc2)CC1,u
Cc1onc(-c2ccccc2)c1C(=O)Nc1ccc(Cl)cc1F,i
COc1ccc(C(C)(C)C)cc1NC(=O)c1ccoc1C,7.2%
O=C(Cc1c(F)cccc1Cl)NCc1cccnc1,i
Cc1cccc(NC(=O)CC2CCCCC2)c1C,7.0%
Nc1cc(C(=O)O)ccc1NCC1CCCO1 (stereo unspecified),i

# Additional results follow:
SMILES,Mtb growth
Oc1c(C(Nc2ccccn2)c2cccc(Oc3ccccc3)c2)ccc2cccnc12 (stereo unspecified),i
CCCCc1ccc(NS(=O)(=O)c2ccc(O)c(C(=O)O)c2)cc1,i
CC12c3ccccc3C(c3ccccc31)C1C(=O)N(c3ccc(Cl)cc3)C(=O)C12 (stereo unspecified),45.6%
CC(C)(CO)NC(=O)CC12CC3CC(C1)CC(c1ccccc1)(C3)C2,4.6%
Cc1cnn(C(=O)c2ccccc2Br)c1,9.6%
COc1ccc(S(=O)(=O)N2CCCC(C(=O)N3CCN(C)CC3)C2)cc1C (stereo unspecified),i
COC(=O)C1=C(C)N(c2ccccc2Cl)C(=O)C1,21.8%
O=C(Nc1ccc2c(c1)OCCO2)c1ccc(Cl)c(Cl)c1,i
Nc1cc(=O)[nH]c(=S)n1-c1ccc(Cl)cc1,i
O=C(Cn1c(NCCO)nc2ccccc21)c1cccs1,2.9%
Cc1cc(OC(C)C(=O)Nc2ccccc2F)ccc1Cl (stereo unspecified),3.6%
O=C(NCC1CCCO1)C(=O)Nc1cc(Cl)ccc1Cl (stereo unspecified),i
CCCOc1ccccc1C1NC(=O)NC(C)=C1C(C)=O (stereo unspecified),i
Cc1ccc(C(=O)N2CCCCC2)cc1Br,i
CC(NC(=O)c1ccc(N2CCNCC2)c([N+](=O)[O-])c1)C12CC3CC(CC(C3)C1)C2 (stereo unspecified),i
O=C(Nc1ccccc1F)C1CCN(S(=O)(=O)c2ccccc2)CC1,i
O=C(Cc1cccs1)NNC(=S)NCc1ccc(Cl)cc1,i
CCOc1ccccc1-c1n[nH]c(=S)o1,i
CC(C)C1Cc2c(sc3nc(-c4ccccc4)n4c(=S)[nH]nc4c23)CO1 (stereo unspecified),3.2%
CCc1nc(SCC(=O)N2CCc3cc(OC)c(OC)cc3C2)c(C#N)cc1C,i
CC(=O)Nc1ccc(-c2nnc(SCC(=O)n3c4c(c5c3CCCC5)CCCC4)n2C)cc1,i
COc1ccc(NC(=O)c2c(NC(=O)CN3CCN(C)CC3)sc3c2CCC3)c(OC)c1,i
Cc1cc(Cl)ccc1NC(=S)N1CCN(c2ccccc2)CC1,i
O=S(=O)(NCCOCc1ccccc1)c1ccc2c(c1)Cc1ccccc1-2,i
CC(C)(C)c1ccc(OC(=O)COc2ccc3ccccc3c2)cc1,2.4%

# (next part)
SMILES,Mtb growth
O=C(Nc1cccc(C(F)(F)F)c1)c1ccccc1Br,1.1%
COc1ccc(C(=O)NNC(=O)CNC(=O)C2CCCCC2)cc1,i
O=C(c1cccc2ccccc12)N1CCN(Cc2cccnc2)CC1,i
COc1ccc(C(=O)N2CCC(C(=O)Nc3ccc(OC)cc3OC)CC2)cc1,0.3%
O=C(CCN1CCCCC1c1cccnc1)NCc1ccccc1 (stereo unspecified),i
COCCNC(=S)Nc1ccc([N+](=O)[O-])cc1C,i
S=C(NCc1ccco1)Nc1ccc2c(c1)CCC2,i
O=C(c1ccc2c(c1)OCO2)N1CCN(c2ncccn2)CC1,i
COc1cc(NC(=O)c2ccc(OC(C)C)cc2)ccc1NC(=O)c1ccccc1Cl,4.8%
CN1CCN(C(=O)c2cnn(-c3ccccc3)c2NC(=O)c2ccccc2Br)CC1,i
C=CCNC(=O)c1ccccc1NS(=O)(=O)c1ccc(NC(C)=O)cc1,i
CCOc1ccc(N(CC(=O)Nc2cc(OC)ccc2OC)S(C)(=O)=O)cc1,i
NC(=O)Cn1nc2c3c(cccc3c1=O)-c1ccccc1-2,i
COc1ccc(OC)c(NC(=O)Nc2cccc(NC(C)=O)c2)c1,3.5%
CCc1ccc(OCC(=O)N2CCc3ccccc32)cc1,i
O=C1NC(=O)N(C2CCCCC2)C(=O)/C1=C\c1cccc(O)c1,2.0%
O=C(O)c1cccc(Nc2nc(N3CCCC3)nc(N3CCCC3)n2)c1,i
CS(=O)(=O)Nc1ccccc1C(=O)NCc1ccc2c(c1)OCO2,0.4%
CCOC(=O)CNC(=O)c1ccccc1SCC,i
CC(C)CNC(=O)C1(c2ccccc2)CCCC1,i
O=C(NC(=S)Nc1ccc2oc(-c3ccccc3F)nc2c1)c1cc2ccccc2o1,i
CCOC(=O)c1c(NC(=O)c2cc(OC)c(OC)c(OC)c2)sc2ccccc12,i
Cc1ccc(C(=O)Nc2c(C)cc(Br)cc2C)c(Cl)c1,u
Cc1cc(NC(=O)COc2ccc(Cl)cc2Cl)c(C)cc1I,i
Cc1ccc(S(=O)(=O)Nc2ccc(F)cc2F)cc1,i

# (continued)
SMILES,Mtb growth
CCOC(=O)C1CCN(S(=O)(=O)c2ccc(OC)c(Cl)c2Cl)CC1,i
Cc1ccc(OCC(=O)Nc2ccc(OC(C)C)cc2)cc1,6.3%
C=CCn1c(SCC(=O)Nc2ccc(C)cc2)nnc1C(c1ccccc1)c1ccccc1,i
Cc1nc2ccccc2c2c1C(=O)N(N)C2=O,i
CC(C)(C)NS(=O)(=O)c1ccc(NC(=O)C2CCCCC2)cc1,i
CCOC(=O)c1ccc(NC(=O)COc2ccccc2CNC2CCCC2)cc1,i
O=C(CCCN1C(=O)c2ccccc2C1=O)Nc1sc2c(c1C(=O)NCc1ccco1)CCC2,i
COc1cc(Br)cc2cc(C(=O)Nc3cccc(C(C)=O)c3)c(=O)oc12,i
COc1ccc(C(C)(C)C)cc1NC(=O)c1c(C)noc1C,1.4%
CCOc1ccc(C(=O)N(C(=O)c2ccc(OCC)c(Cl)c2)C2=NCCS2)cc1Cl,0.1%
CC1(C)Cc2c(sc3ncn4nc(-c5ccncc5)nc4c23)C(C)(C)N1,i
Nc1nc(SCC(=O)Nc2ccc(Br)cc2F)n[nH]1,i
O=C(NC(=S)Nc1cc(Cl)ccc1Cl)c1cc2ccccc2o1,i
COc1ccc(N(CC(=O)O)S(=O)(=O)c2ccc(C)cc2)cc1Cl,i
O=C(NCc1ccc2c(c1)OCO2)c1cc(-n2cnnc2)ccc1Cl,i
CN(C(=S)NCCc1ccccc1)C1CCCCC1,i
Cc1cc(N2C(=O)C(O)=C(C(=O)c3cccs3)C2c2cccc([N+](=O)[O-])c2)no1 (stereo unspecified),i
CCOC(=O)c1c(NC(=O)c2ccccc2)sc(C(C)=O)c1C,5.8%
CCOC(=O)c1ccc(NC(=S)N2CCC(C(=O)N3CCC(C)CC3)CC2)cc1,i
O=C(Nc1cc(Cl)ccc1Oc1ccccc1)c1ccco1,i
O=C(CNC(=S)NC(=O)c1ccc(Cl)cc1Cl)c1ccccc1,i
COc1ccc(NC(=O)CSc2ncccn2)cc1,i
Cc1cc2ncn(S(=O)(=O)N3CCOCC3)c2cc1C,i
NS(=O)(=O)c1ccc(NC(=S)NC2CC2)cc1,i
CC1=C(C(=O)OCc2ccccc2)C(/C=C/c2ccccc2)NC(=O)N1 (stereo unspecified),i

# Later entries:
SMILES,Mtb growth
c1csc(-c2nnc3ccccn23)c1,i
CC(=O)Nc1cc([N+](=O)[O-])ccc1N1CCCC1,i
Cc1ccc(NC(=O)C(=O)NCC2CCCO2)cc1 (stereo unspecified),i
O=C(NCCCn1ccnc1)c1cc(F)c(F)cc1Cl,i
C=CCn1c(SCC(=O)Nc2cccc(Cl)c2)nnc1C12CC3CC(CC(C3)C1)C2,i
COC(=O)c1ccccc1NS(=O)(=O)c1ccc(Cl)s1,0.9%
O=C(COc1ccccc1[N+](=O)[O-])Nc1sc2c(c1C(=O)NC1CCS(=O)(=O)C1)CCCC2 (stereo unspecified),i
CCCCC(CC)CNC(=O)Cc1cccs1 (stereo unspecified),0.6%
CC(C)c1ccc(OCC(=O)NCc2ccco2)cc1,i
O=C(NCCc1ccccc1)C1CCN(C(=O)c2ccc([N+](=O)[O-])cc2)CC1,3.6%
CC(=O)c1ccc(NC(=S)Nc2ccc(S(N)(=O)=O)cc2)cc1,i
O=[N+]([O-])c1ccc(-c2csc(N3CCCCC3)n2)cc1,i

# Screening results: PubChem, Southern Research Institute
